Source: PubChem BioAssay
2A StopGo – lowers the luciferase signal of an FMDV 2A StopGo reporter. 410,000 tested, 1.2% active. Potency, µM (series often up to 57.9 µM), for the others: at the top dose signal change, negative = less light. human cells with a luciferase reporter of 2A StopGo recoding; control for the full effect not named in the record; active = well fitted falling curve with a large enough effect; inconclusive = small, poorly fitted or top-dose-only effect; inactive = no such curve, though single readings can be large or run the other way; tested in HEK293T cells; also: % is scaled to controls: 0 for no effect and ±100 for the full control effect; nearly all actives have a fitted effect of over 45% in size; luciferase light after 4 h
Cruzain inh Det – blocks cruzain activity in presence of Triton detergent | purified cruzain, Z-FR-AMC fluorescence, 0.01% Triton | 200,000 tested, 0.43% active | AID 1478 | Potency, µM, without a hit: max response, negative = inhibition, most hits filed as inhibitors; active = well fitted curve in the direction sought with a large enough effect; inconclusive = small, poorly fitted or top-dose-only effect, or another doubt; inactive = no such curve, though single readings can be large; an effect the other way counts as inactive or inconclusive;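 also: plate controls were neutral wells for no effect and buffer without enzyme for full effect; nearly all actives have a fitted effect of over 40% in size; top concentration of the series not given in the record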
Target sequence (P25779 123-467 limits assumed): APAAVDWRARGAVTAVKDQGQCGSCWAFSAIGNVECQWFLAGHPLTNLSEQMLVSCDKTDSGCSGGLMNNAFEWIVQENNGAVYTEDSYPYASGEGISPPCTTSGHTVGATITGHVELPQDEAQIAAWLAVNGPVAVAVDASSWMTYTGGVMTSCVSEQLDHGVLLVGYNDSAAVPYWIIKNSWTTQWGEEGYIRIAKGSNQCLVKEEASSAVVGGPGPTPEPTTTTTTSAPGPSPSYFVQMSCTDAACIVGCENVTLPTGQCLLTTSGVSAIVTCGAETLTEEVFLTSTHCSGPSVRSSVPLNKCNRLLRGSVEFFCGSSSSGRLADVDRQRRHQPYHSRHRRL
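Compounds were screened in titration against cruzain (1.5 nM) with 0.01% Triton X-100 to counter colloidal aggregation. Activity was the AMC fluorescence increase over 60 s after adding 2 uM Z-FR-AMC at pH 5.5.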
NS1 function inh – influenza NS1 inhibition; 270,000 tested, 0.4% active; Potency, µM (titrated, usually from 46.1 µM), inactives show at the top dose activity, positive = more growth; S. cerevisiae slowed by influenza A NS1, growth recovery by OD600; also: actives are rising curves; nearly all actives have a fitted effect of over 50% in size
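In this qHTS, NS1 from influenza A is expressed in budding yeast, where it slows growth. Cells are switched from glucose to 2% galactose medium (pH 6.0, -URA), treated with compound, and growth recovery is read at OD600.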
LASV entry inh – blocks Lassa virus binding to or entry into cells. Lassa virus pseudotype entry inhibition, cell reporter; control for the full effect not named in the record. Potency, µM (titrated, usually from 37.9 µM), inactives show at the highest dose activity change, negative = inhibition, usual class: inhibitors. 300,000 tested, 1.2% active. AID 540256; active means well fitted inhibition curve with a large enough effect; inconclusive means small, poorly fitted or top-dose-only effect, or effect the other way; inactive means flat fitted curve, though single readings scatter; tested in HEK293 cells; also: % is scaled to controls: 0 for no effect and ±100 for the full control effect; nearly all actives have a fitted effect of over 50% in size; luciferase read-out
SARS PLpro yeast – inhibitors of SARS-CoV papain-like protease in yeast | S. cerevisiae expressing SARS-CoV PLpro, growth rescue; control for the full effect not named in the record | Potency, µM (doses to about 32.9 µM), for inactives: at the top dose activity, positive = growth rescue | 330,000 tested, 0.19% active | AID 485353; also: 0% is about no effect; nearly all actives have a fitted effect of over 55% in size; growth read by luminescence after 48 h
MARV entry inh – Marburg virus entry inhibition | Marburg virus pseudotyped entry inhibition, cell reporter; control for the full effect not named in the record; about a third of the inactives were read at about 46 µM | Potency, µM (top dose mostly 37.8 µM), without a hit: top-dose activity change, negative = inhibition, hits mostly inhibitors | 300,000 tested, 1.8% active | AID 540276; active = well fitted inhibition curve with a large enough effect; inconclusive = small, poorly fitted or top-dose-only effect, or effect the other way; inactive = flat fitted curve, though single readings scatter; tested in HEK293 cells; about a fifth of its hits are not listed in these tables; also: % is scaled to controls: 0 for no effect and ±100 for the full control effect; luciferase read-out
Cruzain noTriton – blocks cruzain activity in detergent-free assay; P25779; purified cruzain, Z-FR-AMC fluorescence, no detergent; Potency, µM, for inactives: max response, negative = inhibition, hits mostly inhibitors; 200,000 tested, 2.3% active; active = well fitted curve in the direction sought with a large enough effect; inconclusive = small, poorly fitted or top-dose-only effect, or another doubt; inactive = no such curve, though single readings can be large; an effect the other way counts as inactive or inconclusive;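 also: plate controls were enzyme without inhibitor for no effect and buffer without enzyme for full effect; nearly all actives have a fitted effect of over 40% in size; top concentration of the series not given in the record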
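Detergent-free condition (0.00005% Triton X-100) in acetate buffer pH 5.5 with DTT. 1.5 nM enzyme and compound were pre-mixed 15 min, then 2 uM Z-FR-AMC substrate added; reaction progress from fluorescence change between first and third reads (60 s).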
RE007 growth inh – less growth of the S. pombe RE007 Vpr strain; 360,000 tested, 0.21% active; S. pombe RE007 Vpr strain, BacTiter-Glo ATP luminescence, 24 h; control for the full effect not named in the record; Potency, µM (titrated, usually from 92.2 µM), for inactives: at the top dose activity change, negative = less growth; active = well fitted falling curve with a large enough effect; inconclusive = small, poorly fitted or top-dose-only effect; inactive = no such curve, though single readings can be large or run the other way;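 also: % is scaled to controls: 0 for no effect and ±100 for the full control effect; nearly all actives have a fitted effect of over 50% in size; the assay follows cell death caused by Vpr and the record does not say whether a fall means rescue or toxicity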
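Fission yeast strain RE007, carrying one chromosomally integrated HIV-1 vpr copy, was seeded at OD 0.01 in PMG+AL medium with 23 nL pinned compound. After 24 h at 30 °C and 99% humidity, viability was read by BacTiter-Glo luminescence.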
* hit, by the source's call; ? = inconclusive; / = not tested or not shown; & = joins results of further samples; [ ] = dose if it differs, or a comment. Unless noted, calls follow the shape of the dose curve; as a rule, active means well fitted rising curve with a large enough effect; inconclusive means small, poorly fitted or top-dose-only effect; inactive means no such curve, though single readings can be large or run the other way. Potency is read from the fitted curve at half-maximal effect.

SMILES	2A StopGo	Cruzain inh Det	NS1 function inh	LASV entry inh	SARS PLpro yeast	MARV entry inh	Cruzain noTriton	RE007 growth inh
O=[N+]([O-])c1cccc(N/N=C/c2ccc(N3CCOCC3)cc2)c1	-1%	/	-82%	4%[46.1 µM]	-13%	?	/	-8%
Cc1ccc(-n2c(C)cc(C=C3C(=O)N(C)C(=O)N(C)C3=O)c2C)cc1	-16%	/	/	1%	/	12%	/	4%
COc1ccc(-c2noc(COc3ccc4c(c3)OCO4)n2)cc1	/	-4.7%	6%	18%	3%	15%	-10%	-12%
COc1ccc2c(c1)cc1n2CCN2CCCN=C12	-19%	-4.9%	-4%	?	8%	-7%	-3%	-14%
CC1CC(C)CN(CC(=O)Nc2ccc3c(c2)OCCO3)C1 (stereo not given)	35%[activator]	4.5%	-8%	?	0%	?	-6%	-10%
COc1ccc(CCNC(=O)c2nc(-c3cccs3)no2)cc1OC	?	/	/	?	-1%	-14%[46.1 µM]	/	-17%
CC(C)(C)c1cccc(/C=N/O)c1O	-6%	-6.6%	-7%	-3%	2%	0%	5%	-26%
COc1cccc(CNC(=O)Cc2csc(Nc3nc(=S)[nH]c4ccccc34)n2)c1	-2%	/	4%	/	4%	?	/	-2%
COc1cc(CC(C)N)c(OC)cc1I (stereo not given)	-15%	-3.8%	-9%	?	/	?	-2%	-6%[18.4 µM]
COc1ccc(CN(C)C(=O)c2ccc(NC(=O)CC3SC(N4CCCC4)=NC3=O)cc2)c(OC)c1OC (stereo not given)	13%	/	/	-1%	3%	?	/	-8%
CC(=O)c1ccc(NC(=O)CSc2cn(CC(=O)N3CCCCCC3)c3ccccc23)cc1	-30%	-5.0%	/	-1%[46.1 µM]	/	/	?	/
CC1(C)CC(=O)C2=C(C1)NC(Nc1nc3ccccc3o1)=NC2c1ccccn1 (stereo not given)	?	/	/	-10%	-7%	?	/	-1%
CCOC(=O)N1CCN(Cc2nc(C3CC3)no2)CC1	-14%	/	6%	4%	-2%	1%[46.1 µM]	/	0%
CCC(C)NC(=O)CSc1nnc(-c2ccc(OC)c(OC)c2)c(-c2ccc(OC)c(OC)c2)n1 (stereo not given)	8%	/	1%	/	-2%	/	/	4%
Cc1cc(/C=N/NC(N)=S)c(C)n1-c1ccc(Cl)c(Cl)c1	?	?	23%	?	?	?	?	?
CCC(=O)N1CCc2cc(S(=O)(=O)CCC(=O)N3CCN(c4cc(C)ccc4C)CC3)ccc21	0%	0.4%	/	9%[46.1 µM]	/	10%[46.1 µM]	3%	/
CCn1ccnc1CN(C)Cc1cn(-c2ccccc2)nc1-c1ccc(OC)cc1F	-17%	/	-2%	?	0%	10µM*	/	14%
Cc1ccc(S(=O)(=O)N2CCN(C)CC2)cc1[N+](=O)[O-]	-3%	-2.4%	0%	24%	-16%	1%	-1%	0%
COc1ccc(NC(=O)CSc2nc3ccccc3cc2Cc2ccccc2)cc1	31%[activator]	-1.7%	2%	-8%	1%	5%	?	4%
COC(=O)C1CC(=O)c2sccc2C1 (stereo not given)	-10%	-2.0%	-8%	?	-1%	14%	-8%	1%
Cc1noc(C)c1C(=O)N1CCCC(C(=O)c2cccc(C(F)(F)F)c2)C1 (stereo not given)	-27%	/	3%	8%	1%	18%[46.1 µM]	/	1%
O=C(O)C(Cc1ccccc1)N1Cc2ccccc2C1=O (stereo not given)	-1%	1.7%	2%	13%	15%	12%[46.1 µM]	-6%	11%
COc1cccc(OC)c1C(=O)Nc1ccc2nc(C)c(C)nc2c1	52%[activator]	/	-10%	/	-2%	/	/	-1%
O=S(=O)(NCCSc1nnnn1-c1ccccc1)c1cccs1	5%	2.9%	-9%	2%	6%	?	-5%	0%
COc1cc(C2Nc3c(F)cccc3C3C=CCC32)cc(Br)c1OC (stereo not given)	?	/	13%	-5%[46.1 µM]	-1%	?	/	0%

Random excerpt: two entries already listed.
SMILES	2A StopGo	Cruzain inh Det	NS1 function inh	LASV entry inh	SARS PLpro yeast	MARV entry inh	Cruzain noTriton	RE007 growth inh
O=C(O)C(Cc1ccccc1)N1Cc2ccccc2C1=O (stereo not given)	-1%	1.7%	2%	13%	15%	12%[46.1 µM]	-6%	11%
CC(=O)c1ccc(NC(=O)CSc2cn(CC(=O)N3CCCCCC3)c3ccccc23)cc1	-30%	-5.0%	/	-1%[46.1 µM]	/	/	?	/

Going on with the list:
SMILES	2A StopGo	Cruzain inh Det	NS1 function inh	LASV entry inh	SARS PLpro yeast	MARV entry inh	Cruzain noTriton	RE007 growth inh
COCCN(CCOC)c1nc(S(=O)(=O)c2ccc(C)cc2)c(Cl)s1	-9%	-1.2%	-5%	?	2%	-3%	?	16%
COC(=O)C1=NNC2(C)C(=O)N(c3ccc(C)cc3)C(=O)C12 (stereo not given)	12%	/	1%	/	2%	/	/	-6%
NCCCC[C@@H]1NC(=O)c2cc([N+](=O)[O-])cc(I)c2SC[C@@H](C(N)=O)NC(=O)[C@H](CCC(N)=O)NC1=O	-3%	3.1%	2%	7%	4%	-23%	-6%	6%
COc1ccc(Cc2c[nH]c(=O)[nH]c2=O)cc1	-16%	-6.7%	4%	2%	2%	10%	-1%	18%
CC1CN(C(=O)c2cc(F)c(F)cc2Cl)CC(C)O1 (stereo not given)	-8%	/	8%	8%	/	-1%	/	3%
COC(=O)C1=C(C)Nc2c(c(=O)n(C)c(=O)n2C)C1c1ccc(C)cc1 (stereo not given)	-6%	/	/	?	1%	25%[46.1 µM]	/	7%
CCCCN(CC)Cc1ccc(CNC(=S)Nc2ccccc2F)o1	-19%	/	/	-22%	1%	-14%[46.1 µM]	/	-2%
COCCOC(=O)C(C#N)c1nc2ccccc2nc1N1CCN(Cc2ccccc2)CC1 (stereo not given)	?	-5.6%	-26%	12%	0%	10%	-9%	2%
O=C1CSC2(C(=O)N(Cc3cccc(F)c3)c3ccccc32)N1c1cccc(C(F)(F)F)c1 (stereo not given)	?	-12%	/	-20%[46.1 µM]	/	/	-5%	/
CN(Cc1ccccc1)S(=O)(=O)c1ccc2[nH]c3c(c2c1)CCCCC3	-9%	-12%	/	-25%[46.1 µM]	/	/	?	/
Cc1ccc(C2c3c(-c4ccccc4O)n[nH]c3C(=O)N2CCc2ccccc2)cc1 (stereo not given)	-16%	-11%	/	?	/	/	?	/
COC(=O)c1ccc(C(=O)OC)c(NC(=O)COC(=O)c2ccccc2OC)c1	-11%	1.9%	6%	8%	-6%	?	0%	-6%
Cc1cc(NC(=O)c2ccc(C(C)(C)C)cc2)no1	-21%	/	/	?	/	?	/	-13%
Cc1cc2c(cn1)C(CCC#N)(CCC#N)c1ccccc1-2	3%	/	16%	1%[46.1 µM]	-1%	-1%[46.1 µM]	/	8%
C=CCSc1nc2c(sc3nc(C)cc(C)c32)c(=O)[nH]1	16%	2.9%	8%	5%	2%	18%	-6%	6%
Cc1cc(C)c(S(=O)(=O)N2CCCCC2CCNC(=O)C(=O)NCCN2CCOCC2)c(C)c1 (stereo not given)	-7%	/	/	-9%	-6%	?	/	-2%
Cc1cc([N+](=O)[O-])ccc1P(=O)(O)c1ccc([N+](=O)[O-])cc1C	4%	/	/	-1%[46.1 µM]	/	20%	/	-5%
COc1ccc(C2C(C(=O)c3sc(C)nc3C)=C(O)C(=O)N2CCN2CCOCC2)cc1 (stereo not given)	-12%	5.8%	24%	6%	-10%	-12%&-12%	5%	-5%
Cc1cc(C)c(S(=O)(=O)Nc2cc(SCC(=O)O)c(O)c3ccccc23)cc1C	-4%	-11%	-34%	-12%	-6%	?	9%	-14%
O=C(CSCc1cnn(-c2ccccc2)c1-n1cccc1)N1CCN(Cc2ccccc2)CC1	?	-2.1%	-42%	-12%	-8%	-10%	?	0%
COc1ccc(CN(C(=O)CNC(=O)c2ccco2)C(C(=O)NC2CCCC2)c2ccco2)cc1 (stereo not given)	-20%	5.7%	-7%	-16%	-1%	2%&-29%	-9%	-1%
COc1ccccc1N(CC(=O)Nc1cccc(C(F)(F)F)c1)S(C)(=O)=O	3%	/	2%	-17%	1%	-20%	/	2%
O=C(Cc1ccc(Cl)cc1)N1CCC2(CC1)NCCc1[nH]cnc12	2%	/	1%	/	5%	/	/	0%
Cc1ccc(NC2=Nc3ccccc3CC2)cc1	-41%	-3.3%	-35%	?	27%	7.9µM*	-8%	-16%
Cc1ccc2c(=O)c(C(=O)c3ccc(F)cc3)cn(CC(=O)Nc3ccc4c(c3)OCCO4)c2n1	-7%	-2.4%	/	17%[46.1 µM]	/	/	6%	/

(continued)
SMILES	2A StopGo	Cruzain inh Det	NS1 function inh	LASV entry inh	SARS PLpro yeast	MARV entry inh	Cruzain noTriton	RE007 growth inh
Cc1cccc([C@@H]2[C@@H]3C(=O)N(C)C(=O)[C@@H]3[C@@H]3C(=O)Nc4ccccc4C(=O)N23)c1	0%	/	4%	/	4%	/	/	-4%
Cc1cccc2c(N=Nc3ccccc3)c(O)[nH]c12	55%[activator]	/	0%	?	0%	?	/	1%
Cc1ccc2c(CC(=O)OCn3nnc4ccccc4c3=O)coc2c1	-10%	-0.7%	-14%	0%	14%	13%	-5%	-18%
CCCn1c(Oc2ccccc2)nc2c1c(=O)n(C)c(=O)n2C	-15%	/	2%	/	-4%	/	/	5%
COc1ccc(CC(CN)c2ccccc2)cc1 (stereo not given)	-12%	/	0%	/	-6%	/	/	-3%
C#CCOc1ccc(C2C3=C(COC3=O)Nc3cc4c(cc32)OCO4)cc1OC (stereo not given)	-12%	/	-2%	?	-2%	/	/	-14%
Cc1ccc(-c2cc(C(=O)Nc3ccc(S(=O)(=O)Nc4onc(C)c4C)cc3)[nH]n2)c(O)c1	-11%	/	-46%	?	-2%	7%[46.1 µM]	/	1%
COC(=O)c1ccccc1NC(=O)Cn1nc(C)c2nn(-c3ccc(Cl)cc3)c(C)c2c1=O	?	2.2%	/	-6%[46.1 µM]	/	/	-10%	/
Cc1cc(NC(=O)CCCN2C(=O)c3cccnc3C2=O)no1	10%	7.6%	3%	1%	-1%	12%	-4%	-28%
CCc1ccc(NC(=O)CN(c2ccc(C)cc2)S(=O)(=O)c2cccs2)cc1	5%	-5.1%	/	-16%[46.1 µM]	/	5%[46.1 µM]	-15%	/
